NPYLR7 agonist – mosquito NPYLR7 agonism; HEK293T NPYLR7/Galpha15, GCaMP6s calcium fluorescence; activation, % at 10 µM; actives 0.15% (n = 270,000); AID 1259423; in the data active = activation above about 40%;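 note: 0% = vehicle and 100% = reference agonist at the receptor; some compounds past the cut are filed as inactive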
NPYLR7 agonist max-min – recorded beside NPYLR7 agonist, whose call it bears; activation, %; measured here: Max-Min RFU normalised activation; some inactives read as strong as hits;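 span of the calcium signal over five minutes; 0% = vehicle and 100% = native peptide agonist; compound fluorescence can raise it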
Active calls of the source: *; & = joins results of further samples. Not all compounds are listed; rates above refer to the full screens.

SMILES	NPYLR7 agonist	NPYLR7 agonist max-min
COc1ccc(CCC(=O)NC(C)c2cnn(-c3ccccc3C)c2C)cc1OC (stereo not drawn)	13	8
O=C(NCC(=O)N1CCCC1)c1cc(-c2ccccc2Cl)nc2ccccc12	1	22
CCOc1ccccc1CNCc1cnc(SC)nc1N1CCN(c2ccccc2F)CC1	4	2
CN(C)C(=O)c1ccc(NC(=O)CCCNC(=O)c2ccccc2)cc1Cl	-5	-6
COc1ccc(OCCN2C(=O)CN(/C=C/c3ccccc3)C2=O)cc1	3	2
CC(C(=O)Nc1nccs1)N1CCN(CCSc2ccccc2)CC1 (stereo not drawn)	3	2
C=CCNC(=O)c1ccccc1N1CCC(NC(=O)Nc2cccc(Cl)c2)CC1	-7	-2
O=C(NCCC1C(=O)Nc2ccccc21)c1ccc(F)cc1Cl (stereo not drawn)	3	4
O=C(NC(c1ccc(Cl)cc1)c1ccsc1)C1CCN(Cc2ccc(Oc3ccccc3)cc2)CC1 (stereo not drawn)	-9	-7
COc1ccccc1N1CCN(c2nc(-c3ccc(C)cc3)nc3cc(Cl)ccc23)CC1	7	13
Cc1cc2nc(-c3cccs3)cc(C(=O)NC3CCc4ccccc43)c2cc1C (stereo not drawn)	4	5
CCn1cc(NC(=O)c2cc3ccc(Br)cc3[nH]2)ccc1=O	14	9
Cc1ccc(S(=O)(=O)N2CCN(C(=O)CCc3cccc(F)c3)CC2)cc1C	2	7
C=C(C)CNC(=O)C1CCC(=O)N(CCCc2ccccc2)C1 (stereo not drawn)	6&3	4&0
CCCCN(CCC(=O)N1CCN(Cc2ccc3c(c2)OCO3)CC1)c1nc(Cc2cccc(OC)c2)ns1	-13	-3
COCCNC(=O)c1nn(-c2ccc(OC)cc2)c(=O)n(Cc2ccccc2)c1=O	-4	1
O=C(c1cnccn1)N1CCC2(CC1)OCCN2S(=O)(=O)c1cccs1	-1	-4
O=C(NN=C1CCC2(CC1)OCCO2)c1ccc(COc2ccccc2)o1	5	5
CCOc1ccc(C2C(C(=O)OCCSCC)=C(C)NC3=C2C(=O)CCC3)cc1 (stereo not drawn)	0	-1
COC(=O)CCC(=O)N1CCc2c([nH]c3ccccc23)C1c1ccc(SC)cc1 (stereo not drawn)	17	12
O=C(CC1COCCN1)N1CCN(C/C=C/c2ccccc2)CC1 (stereo not drawn)	-6	-6
Cc1noc(C)c1CNCc1cn[nH]c1-c1ccccc1	8	5
CC(=O)N1CCc2c(nc(-c3ccccn3)nc2N2Cc3ccccc3C2)C1	1	-1
CCOC(=O)c1c(NC(=O)Cc2ccccc2)sc(C(=O)Nc2cccc(C(F)(F)F)c2)c1C	-5	-10
CCC(NC(=O)C(C)(C)C)c1ccc(C)cc1C (stereo not drawn)	7	1

(next part)
SMILES	NPYLR7 agonist	NPYLR7 agonist max-min
Cc1ccc(NC(=O)COc2ccc3c4c(c(=O)oc3c2)CCC4)cc1S(=O)(=O)N(C)C	2	3
Cc1ccc(S(=O)(=O)N2CCCCC2CCNS(=O)(=O)CCN2C(=O)CCCC2=O)cc1 (stereo not drawn)	-6	-6
Cc1cc(C(=O)N2CCCC(CCC(=O)N3CCN(Cc4ccccc4)CC3)C2)no1 (stereo not drawn)	3	2
COc1ccc(C(C2Sc3ncnn3C2=O)N2CCC(C)CC2)cc1OC (stereo not drawn)	4	3
CCOC(=O)C1CCN(C(=O)CCc2cc3c(n2CCc2cccc(F)c2)-c2ccc(OC)cc2CC3)CC1	28	15
CCC(C)N(Cc1cccc(OS(=O)(=O)CC)c1)C(=O)Nc1ccc(Cl)cc1Cl (stereo not drawn)	7	17
Cc1c[nH]c(=O)n1-c1ccc(C(=O)N(C)C(C)CC(C)C)cc1 (stereo not drawn)	13	13
COc1cc(/C=C/C(=O)Nc2cc(C)nn2-c2nc3c(c(=O)[nH]2)CCC3)cc(OC)c1OC	15	5
CCc1nnc(-c2cc3ccccc3n2CC(=O)Nc2ccc(NC(C)=O)cc2)o1	2	3
O=C1NC(=Nc2cccc(Cl)c2)N2Cc3ccccc3CC12 (stereo not drawn)	8&0	6&2
NCc1nnc(-c2ccccc2)s1	-1	-1
CC(C)c1nnc(CN2CCCC(N3CCCC3=O)C2)o1 (stereo not drawn)	6	4
Cc1nnc2c3ccccc3c(-c3ccc(O)cc3)nn12	15	7
Cc1nc(N2CCN(C(=O)c3ccccc3Cl)CC2)cc(-n2ccnc2)n1	-15	-21
COC(=O)[C@@H]1CCCN1Cc1nc(-c2ccc(OC)c(OC)c2)oc1C	4	9
N#CCc1c(C#N)c(N)nc(N2CCc3ccccc3C2)c1C#N	10	4
CCOC(=O)C1=C(O)/C(=C\c2ccc(OC)c(OC)c2OC)SC1=Nc1ccc(OC)cc1OC	-8	-2
COc1ccc(CN2CCN(Cc3cnc(SC)nc3)CC2CCO)cc1C (stereo not drawn)	-6	-8
c1n[nH]c2c1CCCC2	-5	-5
COC(=O)c1nnn(-c2ccc(Cl)cc2)c1C(=O)OC	10	11
CCOC(=O)c1c(NC(=O)c2ccc(Cl)cc2Cl)sc(C(=O)Nc2ccc(OC)cc2)c1C	-7	-4
O=C1NCC2(CCCN(C(=O)c3cnn(Cc4ccccc4)c3)C2)O1 (stereo not drawn)	12	8
COC(=O)C(c1ccc(OC)cc1)C1C=CC(NC(=O)c2ccc(F)c(C(F)(F)F)c2)C1 (stereo not drawn)	-1	-2
O=C(NC1CSc2c1nc1ccccc1c2C(=O)O)c1ccccc1 (stereo not drawn)	2	47
CC(=O)Nc1cc(C)c(C)cc1-c1csc(N)n1	1	0

A different layout for six compounds above.
mol,NPYLR7 agonist,NPYLR7 agonist max-min
CC(C)c1nnc(CN2CCCC(N3CCCC3=O)C2)o1 (stereo not drawn),6,4
CCc1nnc(-c2cc3ccccc3n2CC(=O)Nc2ccc(NC(C)=O)cc2)o1,2,3
c1n[nH]c2c1CCCC2,-5,-5
O=C1NC(=Nc2cccc(Cl)c2)N2Cc3ccccc3CC12 (stereo not drawn),8&0,6&2
CCOC(=O)C1CCN(C(=O)CCc2cc3c(n2CCc2cccc(F)c2)-c2ccc(OC)cc2CC3)CC1,28,15
COC(=O)[C@@H]1CCCN1Cc1nc(-c2ccc(OC)c(OC)c2)oc1C,4,9

4 entries picked at random from the list so far:
SMILES	NPYLR7 agonist	NPYLR7 agonist max-min
C=C(C)CNC(=O)C1CCC(=O)N(CCCc2ccccc2)C1 (stereo not drawn)	6&3	4&0
O=C(NCCC1C(=O)Nc2ccccc21)c1ccc(F)cc1Cl (stereo not drawn)	3	4
CCOC(=O)C1=C(O)/C(=C\c2ccc(OC)c(OC)c2OC)SC1=Nc1ccc(OC)cc1OC	-8	-2
Cc1noc(C)c1CNCc1cn[nH]c1-c1ccccc1	8	5

(next part)
SMILES	NPYLR7 agonist	NPYLR7 agonist max-min
CCn1cc(SCC(=O)Nc2ccccc2)c2ccccc21	-4	-5
CCOC(=O)NC(=O)COC(=O)C1(Cc2ccccc2)CCCCC1	2	-1
COc1cccc(C=C2N=C(c3cccc(OC(F)F)c3)OC2=O)c1OC	8	12
CCc1nnc(C2CCN(C(=O)NCc3ccccc3)CC2)s1	-3	-3
COC(=O)c1c(C)c(C(=O)CN(CC2CCCO2)C(=O)c2cccc(Cl)c2)c(C)n1C (stereo not drawn)	-12	-2
O=C(C[C@@H]1NC(=O)[C@H](Cc2ccccc2)NC1=O)NCc1ccc2ccccc2c1-c1ccccc1	-13	-20
COc1ccc(C2CC(c3ccc(F)cc3)=Nc3nnnn32)cc1OCc1ccccc1 (stereo not drawn)	4	13
O=C1N=C(N2CCOCC2)SC1=Cc1cccc([N+](=O)[O-])c1	-7	-13
CCC1CN(C(=O)c2cn3cccnc3n2)CCC(=O)N1Cc1ccccc1 (stereo not drawn)	-1	9
CN(C)c1ccc(N=Cc2nc(-c3ccco3)oc2O)cc1	0	-3
O=C(Nc1cccc(Cl)c1)N1CCN(Cc2ccco2)CC1	-6	-2
CCC(C)N(C(=O)Cn1nc(C)c(C)c(C#N)c1=O)C(C)CC (stereo not drawn)	1	7
Cc1ccc(-c2ccc3c(c2)COCC(=O)N3C)cc1C	9	3
O=C(O)COc1ccc2cc(Br)ccc2c1	6	2
CCc1ccc(C(CNC(=O)c2ccc(N3CCCS3(=O)=O)cc2)N(C)C)cc1 (stereo not drawn)	-1	-1
COc1ccc(OC)c(NC(=O)C2(C)CCN2Cc2ccc(SC)cc2)c1 (stereo not drawn)	2	-2
CCc1ccccc1CN1CCCn2cccc2C1c1cccc([N+](=O)[O-])c1 (stereo not drawn)	11	12
CC1=CC2C(C)(C)CC(=O)C[C@]2(C)CC1COc1ccc2ccc(O)cc2c1 (stereo partly drawn)	3	1
C=CCCN1C(=O)N/C(=C\c2c(CCC)[nH]n(-c3cccc(Cl)c3)c2=O)C1=O	22	19
CC[C@H]1CN(C(=O)CCc2cnccn2)CC[C@@]1(C)O	-4	-6
O=C(Cn1c2ccccc2c(=O)c2ccccc21)Nc1ccc(OCc2ccccc2)cc1	-2	-6
CCCCn1c(SC(C)C#N)nc2ccccc2c1=O (stereo not drawn)	-9	-9
Cn1nc(-c2ccccn2)c2c1NC(=O)CC2c1csc(-c2ccccc2)n1 (stereo not drawn)	7	4
COc1ccccc1/C=C/C=C1N=C(/C=C/c2cccc(Cl)c2Cl)OC\1=O	-4	-6
Cc1cccn2c(=O)c3cc(C(=O)N4CCC(C)CC4)n(C)c3nc12	0	-1

Profiles as entered above. Screens in order: NPYLR7 agonist, NPYLR7 agonist max-min
O=C1N=C(N2CCOCC2)SC1=Cc1cccc([N+](=O)[O-])c1 is entered as -7, -13
CN(C)c1ccc(N=Cc2nc(-c3ccco3)oc2O)cc1 is entered as 0, -3
Cn1nc(-c2ccccn2)c2c1NC(=O)CC2c1csc(-c2ccccc2)n1 (stereo not drawn) is entered as 7, 4
COc1ccc(C2CC(c3ccc(F)cc3)=Nc3nnnn32)cc1OCc1ccccc1 (stereo not drawn) is entered as 4, 13
Cc1ccc(-c2ccc3c(c2)COCC(=O)N3C)cc1C is entered as 9, 3

The results go on:
SMILES	NPYLR7 agonist	NPYLR7 agonist max-min
COc1ccc(-n2ccnc(SCC(=O)NC3CCCC3)c2=O)cc1Cl	-2	-2
Cc1[nH]nc(N)c1Br	2	1
CCC(C(=O)Nc1c(-c2cccc(F)c2)nc2cc(C)ccn12)c1ccccc1 (stereo not drawn)	-12	-9
COc1ccc(/C=C/C(=O)Oc2coc(CSc3nccc(C)n3)cc2=O)cc1OC	-10	-4
OC(Cc1ccccc1)Cn1cnc(-c2ccccc2)c1-c1cccnc1 (stereo not drawn)	1	-2
COc1cccc(-c2ccnc3[nH]n(-c4ccccc4)c(=O)c23)c1	2	0
FC(F)(F)c1cccc(-n2cc(-c3ccccc3)c3c(NCCCN4CCOCC4)ncnc32)c1	-8	-10
Cc1cc(C)n(-c2ccc(C(=O)NC3CCCC(C)C3)cc2)n1 (stereo not drawn)	-9	-12
CCCCNC(=O)c1sccc1S(=O)(=O)N1C(C)CCCC1C (stereo not drawn)	7	-17
O=C(NNc1cc(N2CCOCC2)nc(N2CCOCC2)n1)c1ccccc1	-14	-16
Cn1c(CC2CCNCC2)nnc1CN1CCc2c([nH]c3ccccc23)C1	4	2
COCCC(=O)N[C@H]1C[C@@H](C(=O)NC2C3CC4CC(C3)CC2C4)N(C)C1 (stereo partly drawn)	-3	-7
CN1CCOC(CNCc2ccc(N3CCCCC3)cc2)C1 (stereo not drawn)	3	0
COc1ccc(NC(=O)Cn2ncn3nc(-c4ccc(C)c(C)c4)cc3c2=O)cc1OC	-11	-17
Cc1cccc(CN(CCC(C)C)CC(O)COCC(C)C)c1 (stereo not drawn)	22	27
COc1ccc(-c2cc(NC(=O)c3cc(F)cc(C(F)(F)F)c3)n(-c3ccc(C)cc3)n2)cc1	5	3
COC(=O)Nc1cc(C(C)(C)C)nn1-c1ccc(Br)cc1	19	24
COCc1ccc(C(=O)N2CCC(CCC(=O)NCc3cccnc3)CC2)o1	8	5
O=C(CSc1nc2c(c(=O)n1Cc1ccccc1)SCC2)Nc1nccs1	5	-6
Cc1ccc(-n2nnnc2-c2cnc(N3C(C)COCC3C)nc2C(F)(F)F)cc1 (stereo not drawn)	15	11
O=C(NC1CCOCC1)c1ccc(S(=O)(=O)C(F)(F)F)cc1	-1	-2
Cc1ccccc1-c1ncc(C2CC(=O)Nc3c2c(C2CC2)nn3C)s1 (stereo not drawn)	-3	-10
CSC1CCC(N(C)C(=O)COc2cc(C)cc(C)c2)C1 (stereo not drawn)	1	0
CC(C)CCN1CCN(C2CCN(c3ccc4c(c3)CCC4)CC2)CC1CCO (stereo not drawn)	4	-1
CCc1cc(Oc2cccc(F)c2)nc(SCc2cccc([N+](=O)[O-])c2)n1	2	7

Carrying on.
SMILES	NPYLR7 agonist	NPYLR7 agonist max-min
COC(=O)Cc1c(C)c2c(OCc3ccc(Br)cc3)cc(C)cc2oc1=O	-6	-13
CC1Oc2ccccc2N(CCC(=O)Nc2nc(-c3ccccc3)cs2)C1=O (stereo not drawn)	2	2
CCn1c(SCc2cn3ccccc3n2)nc2ccccc21	0	-2
COCC1(NC(=O)c2ccc(=O)n(C)n2)CCCC1	-5	-6
COc1ccc(CCNC(=O)c2ccccc2N2CCC(NC(=O)c3ccc(OC)c(OC)c3)CC2)cc1OC	8	5
CCOc1ccccc1NC(=O)N1CCc2nc(Cc3cccc(OC)c3)nc(N3CCOCC3)c2C1	-2	-2
Cc1cccn2c(NC(C)(C)CC(C)(C)C)c(-c3cccc(O)c3)nc12	18&9	16&11
COc1cc(C(=O)N2CCOC(COc3ccc(F)cc3)C2)ccc1F (stereo not drawn)	4	5
Cc1ccc2nc(CN3CCN(S(=O)(=O)c4cccs4)CC3)cc(=O)n2c1	3	2
CCOCC1CCN(C(=O)[C@H](O)C2CCCCC2)CC1	12	10
CCOC(=O)c1c(C)oc2nc(CN(C)Cc3ccc(Cl)s3)[nH]c(=O)c12	7	7
CN(C)S(=O)(=O)c1ccc(C(=O)NCc2c(-c3ccc(Cl)cc3)nc3n2CCS3)cc1	0	0
CCN=c1scc(-c2ccc(C)c(C)c2)n1N=Cc1ccc2c(c1)OCCO2	-3	-10
C=CCN(Cc1nc2sc(C(C)C)cc2c(=O)[nH]1)CC(O)Cc1ccccc1 (stereo not drawn)	5	8

Compound activity (PubChem)
